Screening data: PubChem BioAssay, Fisher Drug Discovery Resource Center
NPYLR7 ag = agonists of mosquito NPYLR7 receptor, primary screen, cell-based, Aedes aegypti, calcium fluorescence, mosquito biting behavior; HEK293T NPYLR7/Galpha15, GCaMP6s calcium fluorescence; activation, % at 10 µM; actives 0.15% (n = 270,000); AID 1259423, 2018; in the data active = activation above about 40%;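 note: 0% = vehicle and 100% = reference agonist at the receptor; some compounds past the cut are filed as inactive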
NPYLR7 ag max-min = further read-out of NPYLR7 ag, marked with its call; activation, %; measured here: Max-Min RFU normalised activation; some inactives read as strong as hits;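 span of the calcium signal over five minutes; 0% = vehicle and 100% = native peptide agonist; compound fluorescence can raise it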
Starred values were filed as active, the others as inactive; & = joins results of further samples. An excerpt; count on the stated rates, not on these rows.

SMILES	NPYLR7 ag	NPYLR7 ag max-min
O=C(CCBr)NC(=O)OCC(F)(F)C(F)F	-11	-16
CCCCC(=O)N1CCN(C(=O)c2cc(-c3cccc(OC)c3)n(-c3ccccc3)c2C)CC1	-4	1
OC(CN(CCN1CCOCC1)Cc1cccs1)c1ccccc1 (centres undefined)	-3	2
COc1ccccc1-c1c(C)[nH]n2c(=O)cc(CSc3nccc(C)n3)nc12	-19	-24
O=C(CSc1nc2ccccc2n1CCOc1ccccc1)c1ccc(Br)cc1	12	8
COc1ccccc1NC(=O)CCn1cnc(-c2ccccc2)c1-c1nccn1C	15	7
C=CCn1c(N2CCN(Cc3cc(C)ccc3C)CC2)nc2c1c(=O)[nH]c(=O)n2C	-5	4
CC(C)(C)c1nnc(NC(=O)CN2C(=O)C3C4C=CC(C4)C3C2=O)s1 (centres undefined)	2	-3
Cc1cnc2n(c1=O)C(CC(=O)NCc1ccncc1)CS2 (centres undefined)	0	-1
COCCNc1oc2c(c1-c1ccc(Cl)cc1)c(=O)n(C)c(=O)n2C	-5	-6
COc1ccc(OC)c(S(=O)(=O)NCCCN(C)C)c1	3	3
CC(C)CN(Cc1cccc(OS(=O)(=O)c2cccc(C(F)(F)F)c2)c1)C(=O)C1CC1	-4	0
CC(=O)N1CCc2cc(C(=O)N(C)CCOc3cccc(C)c3)ccc21	6	7
Cc1ccc(C)c(C2=NN(C(=O)CN3CCOCC3)C(c3ccc4c(c3)OCO4)C2)c1 (centres undefined)	-2	7
CN(C)C1(CNC(=O)CCc2nc3sc4c(c3c(=O)[nH]2)CCCC4)CCCCC1	1	-3
CC(=O)N1CCC(c2cccc(C(=O)N(C)C)c2)CC1	12	3
O=C(Nc1ccc(N2CCCC2)nc1)c1cccc(S(=O)(=O)N2CCOCC2)c1	3	1
OCCN1CCN(Cc2cc(Cl)c3cccnc3c2O)CC1	6	10
COc1cccc(-c2cc(C(=O)N3CCC(C)CC3)n3nc(C(C)(C)C)cc3n2)c1	15	15
CCc1nc(-c2ccc(-n3ccc(C(=O)N4CCC(N5CCCCC5)CC4)n3)cc2)no1	-9	-10
Cc1cc(-c2ccc3c(c2)CCO3)cnc1N	4	1
c1ccc2c(-n3ccc4ccccc43)cccc2c1	0	-1
C=CCn1c(SCc2ccccc2Cl)nc2c1c(=O)[nH]c(=O)n2C	-2	-4
COCc1nn2c3c(cnc2c1-c1ccc(F)cc1)C(=O)CCC3	-1	-2
O=[N+]([O-])c1cccc(S(=O)(=O)NCCOc2ccc(-c3ccccc3)nn2)c1	-9	-18
COc1ccc(SCCC(=O)Nc2nc(-c3cc([N+](=O)[O-])cs3)cs2)cc1	15	8
Cc1nc2ccc(Cl)cn2c(=O)c1NC(=O)c1ccc(C(F)(F)F)cc1	2	-1
Cc1nonc1C1CCCN1Cc1cn(Cc2ccccc2)nc1-c1ccc2c(c1)OCO2 (centres undefined)	-3&15	-4&5
CCn1c(SCC(=O)c2[nH]c(C)c(C(C)=O)c2C)nc2sc(C)c(C)c2c1=O	6	15
CCOCCCn1c(SCc2cc(OC)cc(OC)c2)nc2cc(S(=O)(=O)N3CCOCC3)ccc21	5	2
CC(=O)N1CCN(C(=O)CN2CN(c3ccccc3)C3(CCN(C(=O)CCc4ccccc4)CC3)C2=O)CC1	5	14
Cc1cc(C)c(-c2cnc(-n3cnnc3)c(C)c2)c(C)c1	-5	-5
O=C1c2cccc([N+](=O)[O-])c2C(=O)N1CCc1c[nH]c2ccc(OCc3ccccc3)cc12	-8	-10
O=[N+]([O-])c1nn(-c2cccc(C(F)(F)F)c2)n(O)c1=Nc1ccccc1	-13	-21
CC(C)(C)c1ccc(-c2ccnc3nc(N4CCN(S(C)(=O)=O)CC4)nn23)cc1	23	30
Cc1ccc(S(=O)(=O)Nc2ccc(O)c(C(C(=O)OC(C)C)C(=O)C(F)(F)F)c2)cc1 (centres undefined)	-3	3
C=CCN(C(=O)c1cccc(Cl)c1)C(C)C(=O)c1c(C)c(C(=O)OCC)n(C)c1C (centres undefined)	-8	-4
O=C(COc1ccccc1)NCc1c(-c2ccccc2)nc2n1CCS2	14	11
CC(C)(C)NC[C@@H](O)COc1cccc2c1CCCC2=O	2	-3
CSc1nc(C)c(CCC(=O)OC(C(=O)N(C)C)c2ccccc2)c(C)n1 (centres undefined)	1	10
O=C(CCCn1nc(-c2ccco2)ccc1=O)NCc1ccco1	6	7
O=C(CCN1CCSC1=O)Nc1cc(Br)ccc1F	4	3
CCOC(=O)COc1ccc2oc(=O)cc(-c3cc4cccc(OC)c4o3)c2c1	-3	-5
Cc1ccsc1C(=O)N1CCN(Cc2cc(=O)c(OCc3ccccc3Cl)co2)CC1	13	28
O=c1cnnc(SCc2cccc3ccccc23)[nH]1	2	2

Arranged by formula weight (descending): some entries from above.
SMILES	NPYLR7 ag	NPYLR7 ag max-min
CCOCCCn1c(SCc2cc(OC)cc(OC)c2)nc2cc(S(=O)(=O)N3CCOCC3)ccc21	5	2
CC(=O)N1CCN(C(=O)CN2CN(c3ccccc3)C3(CCN(C(=O)CCc4ccccc4)CC3)C2=O)CC1	5	14
Cc1ccsc1C(=O)N1CCN(Cc2cc(=O)c(OCc3ccccc3Cl)co2)CC1	13	28
Cc1nonc1C1CCCN1Cc1cn(Cc2ccccc2)nc1-c1ccc2c(c1)OCO2 (centres undefined)	-3&15	-4&5
C=CCN(C(=O)c1cccc(Cl)c1)C(C)C(=O)c1c(C)c(C(=O)OCC)n(C)c1C (centres undefined)	-8	-4
COc1ccc(SCCC(=O)Nc2nc(-c3cc([N+](=O)[O-])cs3)cs2)cc1	15	8
CCn1c(SCC(=O)c2[nH]c(C)c(C(C)=O)c2C)nc2sc(C)c(C)c2c1=O	6	15
CC(C)(C)c1ccc(-c2ccnc3nc(N4CCN(S(C)(=O)=O)CC4)nn23)cc1	23	30
O=[N+]([O-])c1cccc(S(=O)(=O)NCCOc2ccc(-c3ccccc3)nn2)c1	-9	-18
CCOC(=O)COc1ccc2oc(=O)cc(-c3cc4cccc(OC)c4o3)c2c1	-3	-5
CSc1nc(C)c(CCC(=O)OC(C(=O)N(C)C)c2ccccc2)c(C)n1 (centres undefined)	1	10
Cc1nc2ccc(Cl)cn2c(=O)c1NC(=O)c1ccc(C(F)(F)F)cc1	2	-1
O=C(COc1ccccc1)NCc1c(-c2ccccc2)nc2n1CCS2	14	11
O=C(CCN1CCSC1=O)Nc1cc(Br)ccc1F	4	3
O=C(CCCn1nc(-c2ccco2)ccc1=O)NCc1ccco1	6	7
COCc1nn2c3c(cnc2c1-c1ccc(F)cc1)C(=O)CCC3	-1	-2
CC(C)(C)NC[C@@H](O)COc1cccc2c1CCCC2=O	2	-3
Cc1cc(C)c(-c2cnc(-n3cnnc3)c(C)c2)c(C)c1	-5	-5
O=c1cnnc(SCc2cccc3ccccc23)[nH]1	2	2

The list continues:
SMILES	NPYLR7 ag	NPYLR7 ag max-min
CN(CC(=O)NCC(O)c1ccccc1C(F)(F)F)c1cnccn1 (centres undefined)	5	3
Cc1cc(C)n(NC(=O)c2ccc(Oc3ccccc3)cc2)c(=O)c1C#N	11	8
Cc1ccccc1-c1cc(O)c2c(c1)CN(C(=O)CC(F)(F)F)CCO2	-2	-4
COc1ccc2[nH]c3c(c2c1)CCN(C(=O)c1ccc(OC)c(C(F)(F)F)c1)C3c1ccccc1OC (centres undefined)	7	-6
COc1ccc(-c2nnc(SCC(=O)N/N=C\c3ccc(F)cc3)n2-c2ccccc2)cc1OC	-5	4
CC(=O)Nc1ccc(CN(C)c2c(C)nc3ccc(C(=O)NCCN(C)C)cn23)cc1	4	-11
CCCc1nc2c(c(=O)c3ccccc3n2C)c(=O)n1Cc1ccccc1	-4	-3
O=C(O)CN1C(=O)/C(=C\c2ccc(-c3ccc(F)cc3)o2)SC1=S	0	-5
Cc1c(C(=O)NC(C)CCC(C)C)sc2nc(-c3ccco3)[nH]c(=O)c12 (centres undefined)	7	5
O=S(=O)(Nc1ccccc1)N1CCOCC1	21	11
Cc1cc(C)cc(COc2coc(CN3CCN(S(=O)(=O)c4cccc(C#N)c4)CC3)cc2=O)c1	1	-3
Cc1ccc(C)c(C2CC(c3ccc(C)c(C)c3)=NN2C(=O)CN2CCOCC2)c1 (centres undefined)	23	20
C=CCn1c(=O)c2c(nc3n2CCN3c2ccc(C)c(Cl)c2)n(C)c1=O	2	0
CCn1c(=O)c2c(nc3n2CCCN3c2cccc(Cl)c2)n(C)c1=O	0	-4
CCOC(=O)c1c(NC(=O)c2cccs2)sc(C(=O)N2CCOCC2)c1C	-10	-13
CCOc1ccc(Cn2c(=O)oc3ccccc32)cc1	1	14
Cc1ccc(CNC(=O)C2CN(C)CCO2)c(OC(C)(C)C)c1 (centres undefined)	3	1
OC1(c2cccs2)CN(c2ccc(Cl)cc2)C2=[N+]1CCCC2 (centres undefined)	-2	0
COCCCN(Cc1nc(C(=O)OC)cs1)C(=O)Nc1ccc([N+](=O)[O-])cc1	-2	6
CCN1CCC(C(=O)NC(c2ccccc2)c2ccc3ccccc3n2)CC1 (centres undefined)	8	-2
CN(CC1OCCO1)C(=O)CCCc1ccc(NC2OC(C3COC(C)(C)O3)[C@@H]3OC(C)(C)O[C@H]23)cc1 (some centres undefined)	-10	-14
COCc1nc(NC2CCCc3cc(OC)ccc32)c2cnn(C)c2n1 (centres undefined)	18	6
COc1ccc(C2=NN(C(=O)CN3CCN(C(C)=O)CC3)C(c3ccccc3OC)C2)cc1 (centres undefined)	11	9
COc1cccc(C(=O)NCC(c2cccc3ccccc23)N2CCCC2)c1OC (centres undefined)	-3	2
CC1CCCC2(C1)OCC(C(=O)NCc1cccnc1)N2C(=O)C1CCCC1 (centres undefined)	-4	4
CCOC(=O)c1[nH]c2ccc3c4ccccc4ccc3c2c1CCN1C(=O)c2ccccc2C1=O	-5	-9
O=C(c1cc(-c2ccc(F)cc2)nc2cc(-c3ccc(Cl)cc3)nn12)N1CCN(c2ccccc2F)CC1	-1&22	2&15
Cc1nnc(-c2cc3ccccc3n2CC(=O)Nc2ccccc2C(F)(F)F)o1	10	9
COc1ccc(Nc2nc(N3CCN(C)CC3)nc3[nH]ncc23)cc1	3	1
Nc1nc(NCc2ccccc2)nc(N2CCN(Cc3ccccc3)CC2)c1[N+](=O)[O-]	-1	-3
CCC(Nc1ccc(NC(C)=O)c(OC)c1)c1ccc(F)cc1F (centres undefined)	9	5
COc1cc(C(=O)N2CC3(CCCC3)c3cc4c(cc3C2C)OCCO4)cc(OC)c1OC (centres undefined)	-1	1
COCC(=O)NC(C)CN(C(=O)COC)c1ccccc1 (centres undefined)	6	1
CCSC1=C(C#N)C(c2ccccc2)C(c2ccccc2)C(=O)N1 (centres undefined)	4	10
Cc1cc(C#N)c(C)n1-c1cc(C(F)(F)F)cc(C(F)(F)F)c1	-3	-4
CCCc1ncncc1C(=O)NC1CC(=O)N(Cc2ccccc2Cl)C1 (centres undefined)	4	4
COc1ccc(-n2c(Cc3ccccc3)nnc2SCCCCC(=O)N(CCc2ccccc2)Cc2ccccc2)cc1	-1	8
CCC(=O)C1=C(c2ccc(Cl)cc2)N(C(=O)CC)n2c(CC)nnc2S1	9	5
CC(=NNc1ccnc2cc(Cl)ccc12)c1ccc(C)o1	2	2
O=C1OCC(CO)(CO)N=C1NNc1ccc(Cl)c(Cl)c1	-3	-1
O=C(O)c1nn(CC2CCCCC2)c(=O)c2ccccc12	7	4
COc1cccc(C(CN2CCN(C(=O)CC3NC(=O)NC3=O)CC2)OCc2ccc(C#N)cc2)c1 (centres undefined)	0	2
COCc1cc(C)nc(OCC(=O)N/N=C\c2ccccc2Cl)c1C#N	5	-2
CCCn1c(CCC(=O)Nc2ccc(N(C)C)nc2)nc2cc(S(=O)(=O)N3CCCC3)ccc21	1	5
COCCCN(Cc1cccc(F)c1)Cc1ccc(C(O)(c2ccc(OC)cc2)c2ccc(OC)cc2)o1	-2	0

Rewritten field by field: entries from further up.
COCC(=O)NC(C)CN(C(=O)COC)c1ccccc1 (centres undefined)
  NPYLR7 ag = 6
  NPYLR7 ag max-min = 1
CCSC1=C(C#N)C(c2ccccc2)C(c2ccccc2)C(=O)N1 (centres undefined)
  NPYLR7 ag = 4
  NPYLR7 ag max-min = 10

Next structures.
SMILES	NPYLR7 ag	NPYLR7 ag max-min
Cc1ccc(Nc2nnc(SCC(C#N)CCC#N)s2)c(C)c1 (centres undefined)	-2	2
Cc1cccc(-n2c(=O)[nH]c3c(C(N)=O)nc(-c4ccco4)nc32)c1	2	9
CCOc1ccc(-n2nnc(C(=O)OCc3nc(-c4cccc(Cl)c4)oc3C)c2C)cc1	0	-7
COc1ccccc1-c1cc(C(=O)N2CCc3ccccc3C2)nc2cc(C(C)(C)C)nn12	-2	12
CSCCC(C(=O)O)N1C(=O)C2CCCCC2C1=O (centres undefined)	3	5
Nc1[nH]c(=O)ncc1-c1ccc(-c2ccccc2)s1	1	1
COc1ccccc1-c1ccc(NCc2cn3c(n2)SCC3)nn1	-2	-8
CCN(C(=O)c1ccc(OC)cc1)S(=O)(=O)c1ccc(Br)c(C)c1	-1	6
Cc1cc(S(N)(=O)=O)cc(NC(=O)CN(C)CC(=O)N2CCCC2)c1C	4	0
CCCC(C)NC(=O)C(C)N(C)CC(C)C (centres undefined)	-2	-6
O=C(CSCc1cccs1)NC1CC2CC1C1CCCC21 (centres undefined)	-2	-2
COc1ccccc1-c1cc(C(=O)N2CCN(C/C=C/c3ccccc3)CC2)n2nc(C(C)(C)C)cc2n1	-10&15	-8&22
COc1ccc([N+](=O)[O-])cc1-c1ccc(/C=C2/SC(=Nc3ccccc3)N(c3ccccc3)C2=O)o1	-9	-13
COc1cc(S(=O)(=O)n2ccc(C)n2)c(C)cc1Br	0	0
O=C(CCc1ccccc1)N1CCCC(OCc2ccc(Br)cc2)C1 (centres undefined)	-3	2
